Screening results deposited in PubChem BioAssay by National Center for Advancing Translational Sciences (NCATS).
Sfp PPTase inh – inhibitors of Bacillus subtilis Sfp phosphopantetheinyl transferase | Q9F4F7 | Biochemical Sfp PPTase activity, qHTS | Potency, µM, for inactives: max response, negative = inhibition, most hits filed as inhibitors | hit rate 3.5% among 310,000 | AID 1490; active = well fitted inhibition curve with a large enough effect; inconclusive = small, poorly fitted or top-dose-only effect, or another doubt; inactive = no such curve, though single readings can be large or run the other way;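 also: the enzyme is Sfp with the accession as filed and its product quenches rhodamine fluorescence; potency is read from the fitted curve at half-maximal effect; 0% = enzyme reaction without inhibitor and -100% = no enzyme wells; top concentration of the series not given in the record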
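Reaction rates are the 30-min fluorescence difference (ex 525, em 598 nm) in wells containing 15 nM Sfp, 5 uM rhodamine-CoA and 12.5 uM BHQ-2-YbbR at pH 7.6 with 10 mM MgCl2.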
PINK1 modulator – PINK1 expression modulation | hit rate 0.2% among 410,000 | Potency, µM (series often up to 76.6 µM), inactives show top-dose activation (PINK1 increase), most hits filed as activators | PINK1 immunofluorescence, high-content cytometry, 24 h | AID 624263; active = well fitted activation curve with a large enough effect; inconclusive = small, poorly fitted or top-dose-only effect; inactive = flat fitted curve, though single readings scatter; cell line not stated here;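 also: potency is read from the fitted curve at half-maximal effect; % of control where 0% means no effect; nearly all actives have a fitted effect of over 65% in size; a mitochondrial uncoupler was the plate control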
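Fluorescence from anti-PINK1 antibody, together with nuclear and cell stains, was scanned on a laser-scanning cytometer. Before staining, stable-line cells were incubated 24 hours with compounds at 5 concentrations; primary antibody 12 h at 10 degrees C.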
gsp antag – antagonizes gsp, the McCune-Albright syndrome mutation. gsp-mutant cells, cAMP HTRF, 30 min; control for the full effect not named in the record. Potency, µM (titrated, usually from 76.9 µM), for inactives: at the top dose activity change, negative = inhibition, most hits filed as inhibitors. hit rate 0.4% among 340,000. AID 624288; active = falling curve of any shape with a large fitted effect; inconclusive = falling curve, mostly with a smaller effect; inactive = flat or rising curve; cell line not stated here;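 also: intracellular cAMP measured with PDE inhibitor Ro 20-1724 present during compound exposure; potency is read from the fitted curve at half-maximal effect; % is scaled to controls: 0 for no effect and ±100 for the full control effect; nearly all actives have a fitted effect of over 65% in size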
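G418-selected cells were plated in DMEM/10% FBS for 16-24 h at 37C, then treated with compounds plus the PDE inhibitor […] (300 uM solution added) for 30 min at 37C. Intracellular cAMP was measured by HTRF after 30 min lysis at room temperature.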
Menin-MLL FL inh – displaces fluorescein MLL peptide from human menin | Fluorescence polarization, fluorescein-MLL peptide displacement from menin | FP activity change, % at 61.4 µM | 290,000 tested, under 10 active; inconclusive = falling polarisation curve, or a change in total fluorescence; inactive = total fluorescence flat and polarisation flat or rising; no compound was filed as active; the % refers to the polarisation; negative = inhibition;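 also: % of control where 0% means no effect; inhibitors lower the polarisation; unlabelled MLL peptide was the positive control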
ClpP mod – qHTS Assay for Activators of ClpP; Potency, µM (highest dose often 57.5 µM), for the others: at the top dose activity change, negative = active; purified B. subtilis ClpP, FRET peptide cleavage, 20 min; hit rate 1.9% among 340,000; active = well fitted falling curve with a large enough effect; inconclusive = small, poorly fitted or top-dose-only effect; inactive = no such curve, though single readings can be large or run the other way; also: potency is read from the fitted curve at half-maximal effect; the source files actives as falling curves though it sought activators and does not explain the sign; nearly all actives have a fitted effect of over 65% in size; many hits overshoot -100%
Target sequence (P80244 whole entry, looked up): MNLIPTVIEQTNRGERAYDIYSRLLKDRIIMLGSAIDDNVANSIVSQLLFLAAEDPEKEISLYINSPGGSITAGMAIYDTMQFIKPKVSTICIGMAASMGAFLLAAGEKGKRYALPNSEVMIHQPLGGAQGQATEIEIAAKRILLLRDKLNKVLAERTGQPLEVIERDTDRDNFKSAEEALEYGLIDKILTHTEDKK
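ClpP 10 microg/mL final, pH 8 Tris/KCl buffer with BSA, glycerol, Tween-20; compound pinned in; FRET-FV substrate; RT 20 min; Ex320/Em430; ΔFRET vs ADEP 5.8 microM, DMSO, no enzyme.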
D2 ag – activates the human D2 dopamine receptor; DiscoveRx PathHunter D2 beta-arrestin, luminescence, 90 min; 100% = 57 uM dopamine signal; hit rate 0.084% among 360,000; P14416; activation, % (no concentration beside the values); AID 624465; in the data active = activation above about 40%; inconclusive = about 15% to 40%; inactive = below about 15%; also: compound concentration not given in the record; the text of the record calls up to 30% inactive
Target sequence (P14416 whole entry, looked up): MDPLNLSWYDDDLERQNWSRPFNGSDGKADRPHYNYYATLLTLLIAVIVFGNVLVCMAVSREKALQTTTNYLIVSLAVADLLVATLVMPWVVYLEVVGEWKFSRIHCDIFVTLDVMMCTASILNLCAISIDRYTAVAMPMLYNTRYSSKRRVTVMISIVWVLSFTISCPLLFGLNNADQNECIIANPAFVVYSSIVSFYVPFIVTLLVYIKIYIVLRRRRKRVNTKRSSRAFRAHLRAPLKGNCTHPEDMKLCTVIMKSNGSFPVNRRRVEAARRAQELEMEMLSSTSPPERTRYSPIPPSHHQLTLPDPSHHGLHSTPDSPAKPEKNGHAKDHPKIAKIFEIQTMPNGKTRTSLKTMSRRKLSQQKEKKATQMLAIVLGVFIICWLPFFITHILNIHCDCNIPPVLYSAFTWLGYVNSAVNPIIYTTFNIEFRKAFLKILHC
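DiscoveRx PathHunter D2 beta-arrestin cells (2,100/well) attached overnight, then compound-stimulated 90 min at 37 C in HBSS/10 mM HEPES/0.1% Tween-20 buffer; beta-galactosidase complementation read by luminescence after 1 h at ambient temperature. Dopamine 57 uM final (EC100) as control.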
gsp agonist – activates gsp, the McCune-Albright syndrome mutation; AID 624287; Potency, µM (titrated, usually from 76.9 µM), without a hit: at the top dose activation (cAMP increase), actives largely listed as activators; hit rate 0.13% among 340,000; gsp mutant cells, cAMP HTRF, 30 min; control for the full effect not named in the record; active = well fitted activation curve with a large enough effect; inconclusive = small, poorly fitted or top-dose-only effect, or another doubt; inactive = no such curve, though single readings can be large or run the other way; cell line not stated here;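 also: phosphodiesterase inhibitor Ro 20-1724 added with compounds to block cAMP breakdown; potency is read from the fitted curve at half-maximal effect; nearly all actives have a fitted effect of over 60% in size; about a fifth of the inactives were tested at one dose only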
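Cells stably selected in G418 were plated at 2000/well, grown 16-24 hr, then given compounds in DMSO with the PDE inhibitor […] (300 uM solution added) for 30 min at 37C; cAMP was read by HTRF.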
Starred values were filed as active, the others as inactive; u = inconclusive; x = not tested or not shown; & = joins results of further samples; [ ] = dose if it differs, or a comment. No enrichment for hits; any-hit rate near 5.1%.

Structure	gsp antag	PINK1 modulator	gsp agonist	ClpP mod	D2 ag	Sfp PPTase inh	Menin-MLL FL inh
CCc1nnc(NC(=O)c2cc(S(=O)(=O)N3CCN(CC)CC3)ccc2Cl)s1	u	0.0%	u	0.1%	3.5	x	x
CCNC(=O)c1ccccc1NC(=O)c1cccc(S(=O)(=O)N2CCOCC2)c1	24%	9.5%	4%	0.8%	-4.2	9%	-1.6
O=C(c1ccc(Cl)cc1)C1CCCN(Cc2cccn2-c2ccccn2)C1 (stereo unspecified)	9%	0.6%	u	-0.2%	-3.4	10%	2.6
CCOc1ccc(NC(=O)NC23CC4CC(CC(C4)C2)C3)cc1	-4%	u	-7%	x	-5.7	-6%	6.8
CCCCN(C(=O)CCOc1ccc(OCC)cc1)c1c(N)n(Cc2ccccc2)c(=O)[nH]c1=O	x	4.8%	-78%[inhibitor]	-3.8%	-1.2	x	x
Cc1ccccc1NC(=S)NC(=O)Cc1ccc(Cl)cc1	-5%	7.9%	-2%[15.4 µM]	1.1%	-6.2	1%	-2.6
Cc1nn(-c2ccccn2)c2c1C(c1ccsc1)C1=C(CCCC1=O)N2 (stereo unspecified)	0%	-0.2%	1%	25µM*	10.0	6%	4.0
CC(=O)c1cccc(NC(=O)CN2C(=O)c3ccccc3C2=O)c1	-8%	0.9%	-31%[inhibitor]	x	5.5	9%	1.2
CCCn1c(=O)c2[nH]c(C3CCCC3)nc2n(CCC)c1=O	-2%	4.2%&-1.2%	x	-7.0%	-4.4	-2%&8%&9%&11%	u
Cc1ccccc1NC(=O)c1c([N+](=O)[O-])c(C(C)(C)C)nn1C	2%	-0.2%	1%[15.4 µM]	0.5%	1.5	0%	-1.4
Cc1cnccc1CN(C)C(=O)CC1C(=O)NCCN1CC1CCCCC1 (stereo unspecified)	-4%	-0.5%	u	-0.9%	-2.3	5%	-0.6
COc1ccc(-c2c(NC(=O)C(C)C)n(C)c3ccccc3c2=O)cc1	7%	0.0%[38.3 µM]	u	28µM*	-1.4	7%	0.5
CCC(C)NC(=O)CSc1nc2c(sc(=S)n2-c2cc(Cl)ccc2OC)c(=O)[nH]1 (stereo unspecified)	-3%	2.1%	u	1.0%	-4.9	u	6.4
O=C(CSc1nnc(NC(=O)c2c(F)cccc2F)s1)NCc1ccco1	-3%	6.9%	-1%	-0.7%	1.2	x	x
CC1CCN(Cc2c(C(=O)N/N=C/c3ccc(OC(C)C)cc3)nnn2-c2nonc2N)CC1	x	2.5%	9%[15.4 µM]	x	0.2	3%	-5.6
O=C(Cc1c[nH]c2ccccc12)NCc1ccccc1F	6%	1.7%	u	1.7%	-1.9	7%	-5.6
Cc1cc[n+](CC(=O)c2cc3ccccc3oc2=O)cc1	8%	-0.1%	1%	u	-1.5	-11%	14
Cn1ccc2c(N3CCOCC3)cc3c(c21)C1CCC3O1 (stereo unspecified)	x	6.4%	x	-3.6%	-4.2	x	x
Cc1cc(=O)[nH]c(SCC(=O)/C=C2\N(C)c3ccccc3C2(C)C)n1	-26%	0.1%	-25%[15.4 µM]	0.0%	1.1	-9%	6.0
CCOc1ccc(Cl)cc1-c1cc(C(=O)Nc2cc(OC)c(OC)c(OC)c2)[nH]n1	x	-0.9%	x	-1.8%	-1.5	x	x
COC(=O)COc1ccc(S(=O)(=O)NCc2ccco2)cc1Cl	5%	1.3%	6%	2.6%	0.2	16%	2.2
CCCn1ncc(/C=N/O)c1C	10%	-2.1%	0%[15.4 µM]	x	-0.4	15%	-0.7
c1nc(CCO[C@H]2CCCCO2)cc2cc3c(cc12)OCO3	4%	2.1%	x	-2.5%	-3.2	x	x
Cc1cc(/C=N/NC(=O)c2ccncc2)c(C)n1-c1cccc(C(F)(F)F)c1	-6%	2.3%	10%[15.4 µM]	-5.4%	-3.1	-1%	0.5
COCCNS(=O)(=O)c1ccc2c(c1)C(=NO)c1cc(S(=O)(=O)NCCOC)ccc1-2	-5%	1.9%	18%	-15%	-3.0	-3%	-0.7
C[C@H](CO)NC(=O)c1[nH]cnc1C(=O)Nc1ccc(CNC(=O)OC(C)(C)C)cc1	x	0.6%	-1%	1.6%	-6.3	x	x
COc1ccc(OCC(=O)N2CCC3(CC2)CC(=O)c2ccccc2O3)cc1	-4%	-3.4%	36%[15.4 µM]	x	-2.0	x	x
CCOc1ccc(-c2ccc(SCC(=O)N3CCOCC3)nn2)cc1	-6%	-0.5%	-1%[15.4 µM]	x	-4.0	7%	-1.9
COC(=O)c1ccc(-c2ncc[nH]2)cc1	8%	-2.5%	18%	3.9%	9.2	7%	-1.2
COC(=O)C1CCCN1S(=O)(=O)c1ccc2ccccc2c1 (stereo unspecified)	-43%	u	-8%	-0.9%	0.0	4%	2.5
O=C(CN1CCCc2ccccc21)N/N=C/c1ccc(O)cc1O	0%	-0.7%	-10%	-9.1%	-2.0	7%	7.8
Cc1nn(CC2CC2)c(=O)n1-c1ccccc1	22%	2.4%	-5%[15.4 µM]	x	-2.8	19%	0.4
COc1ccc2nc(N3CCN(C(=O)c4ccc5ncsc5c4)CC3)sc2c1	u	6.0%	0%[15.4 µM]	x	0.7	x	x
COc1ccc(C(O)c2ncc(-c3ccccc3F)[nH]2)cc1 (stereo unspecified)	x	-0.1%	x	-2.5%	-4.1	x	x
COc1ccccc1/C=N/NC(=O)CNC(=O)c1ccccc1	6%	-0.5%	-8%	-6.5%	-4.3	9%	6.3
Cc1cc(=O)oc2c3c(cc(OCC(=O)NCC(=O)O)c12)OC(C)(C)CC3	5%	4.3%	22%	3.7%	-1.6	4%	-0.8
O=C1C(Cl)=C(NCC2CCCO2)C(=O)N1c1ccccc1 (stereo unspecified)	-5%	-1.9%	-42%[inhibitor]	-0.1%	-3.5	-9%	-0.7
CN1CCN(NC(=O)c2cc(S(=O)(=O)N3CCOCC3)c(Cl)cc2Cl)CC1	12%	0.7%	-1%	-3.6%	-4.1	11%	3.3
Cc1nnc(NC(=O)CCSc2ccc(Cl)cc2)s1	2%	0.7%	u	-0.1%	-2.4	21%	1.2
CCSc1nnc(N(CCC#N)CCC#N)s1	8%	-1.5%	19%	-0.5%	-1.4	12%	0.4
O=C1CCCCCC1C1(O)C(=O)Nc2ccc(Br)cc21 (stereo unspecified)	-21%	4.5%	-42%[inhibitor]	-0.1%	-2.6	13%	1.0
O=C(C[C@H]1C/C=C\CC[C@@H](Cc2ccc(F)cc2)C(=O)O[C@@H](c2ccccc2)CNC1=O)N[C@H](CO)Cc1ccccc1	-5%	7.4%	28%	-1.0%	-3.7	x	x
CCOC(=O)c1sc(NC(=S)NC(=O)c2ccccc2)nc1C	-6%	6.4%	3%	-2.4%	-2.8	u	-5.4
COc1cccc(-c2cc3nc(NCc4ccccc4F)n(C)c(=O)c3s2)c1	x	0.8%	x	-29%	-7.8	x	x
CC(C)N(C(=O)CSc1nnc(NC(=O)c2cccs2)s1)C(C)C	-31%	0.5%	u	-0.2%	0.0	29%	-1.9
COc1cc(F)c(S(=O)(=O)N2CCOc3ccccc32)cc1OC	-5%	-1.8%	-2%	-2.8%	2.3	-6%	1.7
COCCCN=CC1=C(O)CC(c2ccccc2)CC1=O (stereo unspecified)	14%	0.1%	-22%	0.9%	0.6	6%	-2.7
C=CCN(CC=C)C(=O)Nc1cc(OC)ccc1OC	-4%	3.0%	-2%	x	-5.9	30%	5.1
CCOC(=O)C1=CCN(S(=O)(=O)c2ccccc2F)C1c1cccc(Cl)c1 (stereo unspecified)	x	0.2%	x	-0.7%	-3.1	x	x
O=C(CN1C(=O)NC2(CCCC2)C1=O)Nc1cc(Cl)ccc1Oc1ccccc1	-26%	3.5%	2%	-0.4%	-8.8	x	x

(cont.)
Structure	gsp antag	PINK1 modulator	gsp agonist	ClpP mod	D2 ag	Sfp PPTase inh	Menin-MLL FL inh
O=C(C1CCN(c2nc(-c3ccccc3)nc3c2CCC3)CC1)N1CCC(O)CC1	-5%	3.4%	-19%	-6.8%	-1.2	-2%	x
CCOC(=O)c1cc(NC(=O)c2cccnc2)ccn1	1%	-0.7%	10%[15.4 µM]	-1.0%	-6.1	x	x
O=C(Nc1nnc([C@@H]2C[C@H](O)[C@@H](CO)O2)s1)Nc1cccc2ccccc12	x	3.2%	x	u	u	x	x
CCCn1c(C)cc(C(=O)COC(=O)c2c(C)nn(-c3ccccc3)c2C)c1C	13%	-0.4%	16%	7.3%	2.7	u	-2.1
Cc1ccc(CNC(=O)c2cn(C3CCCCC3)c(=O)c3c2c2ccccc2n3C)o1	5%	-1.0%	-5%	u	-2.2	18µM*	4.4
Cc1nc2c(=O)n(-c3cccc(C(F)(F)F)c3)nc(C)c2s1	-6%	2.0%	-24%	0.5%	-1.9	-6%	1.4
CC(=O)Nc1cccc(C(=O)OC(C)C(=O)Nc2ccc(S(=O)(=O)N3CCCC3)cc2)c1 (stereo unspecified)	-2%	3.4%	-100%[inhibitor]	-0.2%	0.6	x	x
CCOc1c(Nc2ccccc2O)c(=O)c1=O	4%	-2.5%	-11%[15.4 µM]	0.5%	3.9	8%	1.6
CCOC(=O)CSc1nc(N(C)C)nc(N(C)C#N)n1	-11%	-0.1%	2%	0.7%	1.6	10%	8.0
C/C(Cl)=C/Cn1c(N2CCCC2)nc2c1c(=O)[nH]c(=O)n2C	-5%	0.3%	-8%	x	-1.7	7%	-0.3
O=C(CSc1nccc(=O)[nH]1)N1c2ccccc2CCc2ccccc21	-4%	0.9%[38.3 µM]	-20%	-0.1%	-2.3	12%	5.7
CC(C)C(NC(=O)c1ccc(F)cc1)C(=O)NCC1CCCO1 (stereo unspecified)	12%	0.6%	-1%	1.7%	-2.4	12%	1.5
O=C(COc1ccccc1Cl)Nc1nc(-c2ccncc2)cs1	-16%	0.4%	-5%[15.4 µM]	u	-1.9	x	x
C/C(Cl)=C/CN1C(=O)C2C3C=CC(C3)C2C1=O (stereo unspecified)	-2%	-2.3%	3%	-4.3%	0.2	15%	0.9
COc1ccc(NC(=O)COC(=O)C2CCCN2C(=O)OC(C)(C)C)cc1Cl (stereo unspecified)	x	-0.2%	-68%[inhibitor]	0.2%	-0.3	x	x
